High-throughput results as filed in PubChem BioAssay.
Menin-MLL FL inh: inhibitors of human menin-MLL interaction, wild-type MLL peptide; AID 1766; 290,000 tested, under 10 active; Fluorescence polarization, fluorescein-MLL peptide displacement from menin; FP activity change, % at 61.4 µM; inconclusive = falling polarisation curve, or a change in total fluorescence; inactive = total fluorescence flat and polarisation flat or rising; no compound was filed as active; the % refers to the polarisation; negative = inhibition;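 further: % of control where 0% means no effect; inhibitors lower the polarisation; unlabelled MLL peptide was the positive control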
Sfp PPTase inh: inhibitors of Bacillus subtilis Sfp phosphopantetheinyl transferase; Q9F4F7; Biochemical Sfp PPTase activity, qHTS; Potency, µM, inactives show max response, negative = inhibition, actives largely listed as inhibitors; actives 3.5% (n = 310,000); active means well fitted inhibition curve with a large enough effect; inconclusive means small, poorly fitted or top-dose-only effect, or another doubt; inactive means no such curve, though single readings can be large or run the other way;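 further: the enzyme is Sfp with the accession as filed and its product quenches rhodamine fluorescence; potency means the concentration at half of the fitted maximal effect; 0% = enzyme reaction without inhibitor and -100% = no enzyme wells; top concentration of the series not given in the record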
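Step 1, compound plus 15 nM Sfp-PPTase, 15 min, room temperature. Step 2, add rhodamine-CoA (5 uM) and BHQ-2-YbbR (12.5 uM). Step 3, read 525/598 nm fluorescence at 0 and 30 min.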
TRPML1 ag: agonists of human TRPML1 channel | AID 624414 | Q9GZU1 | actives 0.12% (n = 410,000) | TRPML1-expressing cells, Ca2+ dye fluorescence, FDSS; host cell line not named in the record; reference of the full effect not given here | activation, % (test concentration not listed); in the data active = activation above about 50%; inconclusive = about 30% to 50%; inactive = below about 30%; further: 0% is about no effect; the text of the record puts the active cut at 80%
Target sequence (Q9GZU1 whole entry, looked up): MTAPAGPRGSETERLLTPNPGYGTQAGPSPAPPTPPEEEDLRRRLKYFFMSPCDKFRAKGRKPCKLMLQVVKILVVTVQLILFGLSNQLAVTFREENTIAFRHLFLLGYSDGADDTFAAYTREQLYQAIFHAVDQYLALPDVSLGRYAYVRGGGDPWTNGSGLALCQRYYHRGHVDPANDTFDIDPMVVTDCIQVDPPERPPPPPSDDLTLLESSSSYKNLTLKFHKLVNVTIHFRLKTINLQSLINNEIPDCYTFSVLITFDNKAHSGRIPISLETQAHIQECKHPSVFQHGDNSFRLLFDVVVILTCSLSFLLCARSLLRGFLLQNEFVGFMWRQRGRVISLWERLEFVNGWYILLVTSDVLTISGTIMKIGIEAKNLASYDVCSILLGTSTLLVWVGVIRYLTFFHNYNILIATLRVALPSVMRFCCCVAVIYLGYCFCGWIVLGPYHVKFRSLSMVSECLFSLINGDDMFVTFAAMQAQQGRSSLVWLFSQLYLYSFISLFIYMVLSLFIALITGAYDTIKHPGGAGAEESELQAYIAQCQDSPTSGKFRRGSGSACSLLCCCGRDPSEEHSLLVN
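In this qHTS format, compounds were pin-transferred onto Ca8-dye-loaded TRPML1-DL cells induced with Tet overnight, and intracellular Ca2+ fluorescence was recorded kinetically for 110 s after a 10 s baseline. A subsequent 4uM final 54-4 (EC80) addition followed by a second 110 s read served as the antagonist phase.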
TRPML1 inh: blocks the human TRPML1 channel | Q9GZU1 | TRPML1-inducible cells, Ca2+ dye fluorescence, FDSS; hits give low values; inhibition of EC80 agonist-evoked calcium signal | activity change, negative = inhibition, % (no concentration beside the values) | actives 0.02% (n = 390,000) | AID 624415; in the data active means activity change below about -50%; inconclusive means about -30% to -50%; inactive means above about -30%;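 further: stimulus is agonist 54-4 at its EC80 concentration; on the % scale 0 is the no-effect control and ±100 the full control effect; compound concentration not given in the record; the text of the record puts the active cut at -80%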
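Tet-induced TRPML1-DL cells loaded with Ca8 no-wash calcium dye were read kinetically on FDSS. Compound addition was followed by EC80 agonist 54-4 (4 uM final); inhibition was read over 110 s.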
ClpP mod: qHTS Assay for Activators of ClpP. AID 651965, 2013. purified B. subtilis ClpP, FRET peptide cleavage, 20 min. actives 1.9% (n = 340,000). ATP-dependent Clp protease proteolytic subunit (Bacillus subtilis (strain 168)), P80244. Potency, µM (top dose mostly 57.5 µM), without a hit: at the top dose activity change, negative = active; active = well fitted falling curve with a large enough effect; inconclusive = small, poorly fitted or top-dose-only effect; inactive = no such curve, though single readings can be large or run the other way; further: potency means the concentration at half of the fitted maximal effect; the source files actives as falling curves though it sought activators and does not explain the sign; nearly all actives have a fitted effect of over 65% in size; many hits overshoot -100%
Target sequence (P80244 whole entry, looked up): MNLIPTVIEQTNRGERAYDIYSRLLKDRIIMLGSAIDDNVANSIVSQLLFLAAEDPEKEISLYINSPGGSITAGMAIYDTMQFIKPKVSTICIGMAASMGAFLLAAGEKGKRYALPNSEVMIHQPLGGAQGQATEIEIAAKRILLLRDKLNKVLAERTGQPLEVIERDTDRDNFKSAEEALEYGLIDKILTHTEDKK
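FRET quenching reversal measured ClpP activation: 10 microg/mL B. subtilis ClpP at pH 8 with the FRET-FV decapeptide, read at 430 nm after 320 nm excitation. The 20-min minus 0-min signal was scaled between DMSO/no-enzyme wells and ADEP (5.8 microM final).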
PINK1 expr mod: changes PINK1 expression; PINK1 immunofluorescence, high-content cytometry, 24 h; actives 0.2% (n = 410,000); AID 624263; Potency, µM (titrated, usually from 76.6 µM), inactives show at the top dose activation (PINK1 increase), most hits filed as activators; active = well fitted activation curve with a large enough effect; inconclusive = small, poorly fitted or top-dose-only effect; inactive = flat fitted curve, though single readings scatter; cell line not stated here;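 further: potency means the concentration at half of the fitted maximal effect; % of control where 0% means no effect; nearly all actives have a fitted effect of over 65% in size; a mitochondrial uncoupler was the plate control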
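Decision-based qHTS: stable cells, 24 h exposure to five compound concentrations, CCCP as control. Fixed cells stained for PINK1 plus nuclear, mitochondrial and cell markers, cytometer read.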
TRPV1 PAM: enhances activation of the human vanilloid receptor TRPV1. Q8NER1. potentiation, % at 8.33 µM. TRPV1-expressing cells, Fluo-8 calcium influx, capsaicin EC20 potentiation; host cell line not named in the record; control for the full effect not named in the record. actives 0.02% (n = 320,000); active means potentiation above 80%; inconclusive means 30% to 80%; inactive means below 30%; further: 0% is about no effect
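Cells expressing TRPV1 were dye-loaded with Fluo-8 and read kinetically: 10 s baseline, 3 min after compound (agonist portion), then 2 min after EC20 capsaicin (allosteric enhancer portion). Calcium-bound dye fluorescence at 480/520 nm.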
* hit, by the source's call; ? = inconclusive; / = not tested or not shown; & = joins results of further samples; [ ] = dose if it differs, or a comment. This is a random part of the collection; overall some 4.4% were active at least once.

SMILES	Menin-MLL FL inh	Sfp PPTase inh	TRPML1 ag	TRPML1 inh	ClpP mod	PINK1 expr mod	TRPV1 PAM
COc1cc(NC(=O)COC(=O)/C=C/c2ccc(OC)c(OC)c2)cc(OC)c1	0.0	18%	1.6	6	2.0%	0.0%	9
NS(=O)(=O)c1ccc(CCNC(=O)C2CCN(S(=O)(=O)c3c(Cl)cccc3Cl)CC2)cc1	1.6	0%	1.2	-6	/	-1.7%	11
NC(=O)c1nsc(C(=O)N(CCc2ccccc2)C(C(=O)NC2CCCC2)c2ccco2)c1N (stereo not given)	-1.2	4%	0.0	4	-15%	-2.8%[38.3 µM]	-7
CCOC(=O)/C(C#N)=C/c1c[nH]c2ccccc12	2.1&1.1	12%&4%	1.1	-3	?	3.1%	2&-1
CC(=O)N1CCCc2cc(S(=O)(=O)N3CCC(C(=O)NC4CCC(C)CC4)CC3)ccc21 (stereo not given)	/	/	0.3	-7	2.7%	-1.3%	/
COc1ccc(N2C(=O)C3CCCN3C2c2ccc(C)cc2)cc1 (stereo not given)	0.1	22%	0.2	-3	1.4%	3.3%	/
CCc1nc(SCC(=O)N2CCC(Cc3ccccc3)CC2)c2c(=O)n(C)c(=O)n(C)c2n1	2.1	-8%	/	/	/	/	7
O=C(CC1C(=O)NCCN1Cc1c(F)cccc1Cl)NCCCn1cccn1 (stereo not given)	0.7	15%	0.3	38	-2.6%	-0.7%	19
CS(=O)(=O)Cc1ccc(C(=O)Nc2cccc(-c3nc4ccccc4[nH]3)c2)cc1	?	1%	-0.4	-7	/	3.8%	-2
CC(C)(C)n1nc2c(c1NC(=O)Cc1ccc(F)cc1)CSC2	1.2	?	-1.1	-12	-0.2%	0.5%	-5
C=CCNC(=O)CCCc1ccccc1	3.0	7%	-0.4	-11	-0.1%	-2.4%	8
CN1/C(=C\C=C(C#N)C#N)C(C)(C)c2ccccc21	?	4%	8.5	9	-1.7%	5.2%	-7
Clc1ccc(C2=NNC(=NCc3ccccc3)SC2)cc1	-1.0	?	1.8	16	/	0.4%	10
CC1CCCC(C)N1/N=C/c1cc(Br)cc(Br)c1O (stereo not given)	24	-5%	2.9	17	0.5%	18%	-3
COc1ccc(-n2c3c(c(=O)[nH]c2=O)C(NS(=O)(=O)c2ccc(Cl)cc2)(C(F)(F)F)C(=O)N3)cc1 (stereo not given)	6.9	6%	0.2	12	/	-0.5%	8
O=C(CCCCCn1c(=O)[nH]c2ccsc2c1=O)NCc1cccs1	2.0	3%	-0.7	18	1.3%	6.9%	3
CC(=O)c1ccc(Oc2ncnc3c2oc2ccccc23)cc1	/	/	1.7	-6	-4.2%	1.0%	/
Cc1ccc(C(=O)COC(=O)c2ccc(Cl)c(N)c2)s1	/	/	0.6	12	-0.6%	2.3%	8
Cc1ccc(C)c(NC(=O)CSc2nc(=O)n(CCN3CCOCC3)c3c2CCC3)c1	/	/	-0.9	3	-4.5%	1.4%	/
CCOC(=O)CNC(=O)N(C)[C@H]1C[C@H]2c3[nH]c4ccccc4c3CCN2C(=O)[C@H]1[C@H](C)O	/	/	-0.7	/	-4.7%	0.7%	/

3 entries already listed, sorted by molecular weight, rising.
SMILES	Menin-MLL FL inh	Sfp PPTase inh	TRPML1 ag	TRPML1 inh	ClpP mod	PINK1 expr mod	TRPV1 PAM
C=CCNC(=O)CCCc1ccccc1	3.0	7%	-0.4	-11	-0.1%	-2.4%	8
CN1/C(=C\C=C(C#N)C#N)C(C)(C)c2ccccc21	?	4%	8.5	9	-1.7%	5.2%	-7
O=C(CCCCCn1c(=O)[nH]c2ccsc2c1=O)NCc1cccs1	2.0	3%	-0.7	18	1.3%	6.9%	3

Next structures
SMILES	Menin-MLL FL inh	Sfp PPTase inh	TRPML1 ag	TRPML1 inh	ClpP mod	PINK1 expr mod	TRPV1 PAM
COc1ccc(NC(=O)C23CC4CC(C2)CC(c2ccccc2)(C4)C3)c(OC)c1	-0.2	-2%	-0.1	12	-0.8%	-0.6%	-1
O=C(COc1ccccc1)NCC(c1cccs1)N1CCOCC1 (stereo not given)	-2.9	16%	0.5	-9	-2.2%	-3.6%[38.3 µM]	-6
COc1cc(OC)c(CN2CCc3c([nH]c4ccccc34)C2)cc1Br	16	3%	-0.1	5	/	17%	5
CCOC(=O)C1CCCN(C(=O)c2ccc(CNS(=O)(=O)c3ccc(C)cc3)cc2)C1 (stereo not given)	-0.6	13%	1.9	-7	-0.2%	-1.2%	0
CCN(CC)C(=O)Nc1ccccc1C	-0.9	5%	-0.4	-23	0.7%	0.3%	17
Cc1cc2oc(=O)cc(-c3cc4ccccc4o3)c2cc1O	3.6	-10%	-0.8	-5	0.4%	1.3%	-3
Cc1c(C(=O)NCc2cccs2)oc2ccccc12	2.9	-5%	1.7	-8	1.4%	8.1%[38.3 µM]	3
COc1ccc(CN2C(=O)NC(C)(c3ccc(C)cc3)C2=O)cc1F (stereo not given)	-0.9	19%	0.7	15	-0.4%	0.8%	-18
O=C(c1ccccc1Cl)N1CCn2c1nc1ccccc12	-3.6	0%	0.5	9	/	0.2%	-11
COc1ccc(C2C3=C(CCCC3=O)Nc3n[nH]c(C)c32)cc1OC (stereo not given)	-1.8	19%	0.5	-21	/	-0.8%	0
COc1cccc(N2CC(=O)N(c3cccc(OC)c3)CC2=O)c1	-6.5	14%	0.3	-15	0.0%	2.0%	-4
CCOc1ccccc1COC(=O)c1cccc(-n2cnnn2)c1	-0.7	1%	3.3	-1	1.8%	1.9%	12
CCCn1c(-c2cccs2)nc2ccccc21	3.6	-15%	-0.5	-7	?	-1.1%	3
Cc1oc2ncn(C)c(=O)c2c1C(=O)Nc1ccccn1	/	/	-0.5	-10	-2.3%	1.6%	/
CCOc1ccc2nc(SCC(=O)Nc3ccc4c(c3)OCCO4)[nH]c2c1	-0.6	9%	0.8	8	0.0%	-1.4%	0
COc1cc(OC)c(N(C)S(=O)(=O)c2cccc(C(=O)NCc3cccs3)c2)cc1Cl	/	/	-0.6	-3	-0.8%	3.0%	/
O=C(NCc1ccc(Cl)cc1)c1ccc2c(c1)N(Cc1ccccc1F)C(=O)c1ccccc1S2=O (stereo not given)	/	/	-0.5	-5	-0.9%	0.6%	/
COc1cc([N+](=O)[O-])cc(/C=N/NC(=O)c2cc(-c3ccccc3)nc3ccccc23)c1O	?	24%	0.4	60	-1.3%	0.6%	12
CCn1cc(/C=C(\NC(=O)c2ccccc2OC)C(=O)NCCCN2CCOCC2)c2ccccc21	1.1	3%	-0.7	13	-0.5%	4.4%	-8
COC(=O)c1ccccc1NC(=O)CSc1nc2cccnc2n1C	-4.4	-8%	1.4	-13	-5.7%	0.8%	1
O=C(Cn1cc2c(n1)CCCC2)Nc1ccccc1Cl	5.3	11%	1.5	-8	-1.6%	5.1%	1
C=CCn1c(Cc2cccs2)nnc1SCC(=O)Nc1ccc(C(=O)OCC)cc1	2.9	-10%	2.4	9	1.1%	0.0%	-2
COc1cccc(C2C(C#N)=C(N)Oc3cc(C)[nH]c(=O)c32)c1OC (stereo not given)	2.1	-25%	-0.1	0	-0.4%	0.8%	-6
O=C(NC1CCCCC1)c1ccc2ccccc2c1O	/	/	0.8	-8	3.5%	2.6%	/
CN(C(=O)CSc1nc2ccccc2n1CC(=O)N(C)C1CCCCC1)c1ccccc1	/	/	-0.8	45	1.3%	1.1%	/
COc1ccc(CNC(=O)C(=O)NCCC2CCCCN2S(=O)(=O)c2cccs2)cc1 (stereo not given)	/	/	2.0	37	0.1%	0.3%	-4
CCSc1nnc(NC(=O)c2cc(C)oc2C)s1	3.0	4%	-0.3	-13	-7.7%	16%[38.3 µM]	22
CC(C(=O)NC1CCS(=O)(=O)C1)N1C(=O)/C(=C/c2ccc(Cl)cc2)SC1=S (stereo not given)	/	-16%	0.3	-6	3.0%	0.7%	-11
Cc1nn(Cc2c(F)cccc2Cl)c(C)c1NC(=O)C1CC1	7.8	1%	0.0	-15	0.5%	-0.4%	0
COc1cccc(O)c1O	1.1	20µM*	/	/	/	0.1%	/
COc1cc2cncnc2cc1OCCCCC(N)=O	/	/	0.4	/	-24%	0.4%	/
Cc1ccc2[nH]c(=O)c3cc(C(=O)N(C)c4ccc(C)c(C)c4)sc3c2c1	-1.0	11%	-0.1	-2	-3.9%	4.4%	-11
Cc1cc(NC(=O)C2CCCCC2)n(-c2nc3ccccc3[nH]2)n1	0.2	2%	-0.2	-10	-10%	10%	1
C/C(=N\Nc1ccc(F)cc1F)c1ccc(N2CCOCC2)cc1	1.1	4%	2.0	39	-3.0%	-0.6%	-4
CC(C)(C)SCCSC1=CC(=O)CC(c2ccccc2)C1 (stereo not given)	1.9	-12%	-1.3	6	-2.6%	2.0%	-21
O=C1CCN(CCCc2ccccc2)CCN1[C@H](CO)c1ccccc1	1.0	6%	-0.1	-19	1.1%	0.3%	?
CCOc1ccc(Nc2ccc(N3C(=O)CCC3=O)cc2[N+](=O)[O-])cc1	-3.6	9%	2.7	14	/	5.1%	-21
CC1(C(=O)NS(=O)(=O)c2ccccc2C(F)(F)F)CCN1C(=O)CC1CCCCC1 (stereo not given)	/	/	0.0	/	-1.4%	0.8%	/
Cc1cc(NC(=O)CSc2ncnc3sc4c(c23)CCC(C)C4)no1 (stereo not given)	2.5	25%	/	/	/	/	-1
O=c1c(-c2ccc(Cl)cc2)[n+]([O-])c2ccccc2n1O	?	-19%	7.8	1	-3.6%	-1.3%	-3
CN(C(=O)Cc1c(C(=O)O)n(C)c2ccccc12)c1ccc(Cl)cc1	0.9	6%	-1.8	23	-1.0%	0.3%	5
Cc1cccc(-n2cccc2)c1C#N	0.0	12%	-0.1	5	-1.0%	26%[38.3 µM]	-5
CCc1nccn1CCC(=O)N1CCCC(Nc2ccc(F)cc2)C1 (stereo not given)	-1.0	1%	-0.3	-27	-2.4%	1.4%	1

Record cards (already shown):
COc1cc2cncnc2cc1OCCCCC(N)=O across the screens: Menin-MLL FL inh: /; Sfp PPTase inh: /; TRPML1 ag: 0.4; TRPML1 inh: /; ClpP mod: -24%; PINK1 expr mod: 0.4%; TRPV1 PAM: /
CCc1nccn1CCC(=O)N1CCCC(Nc2ccc(F)cc2)C1 (stereo not given) across the screens: Menin-MLL FL inh: -1.0; Sfp PPTase inh: 1%; TRPML1 ag: -0.3; TRPML1 inh: -27; ClpP mod: -2.4%; PINK1 expr mod: 1.4%; TRPV1 PAM: 1
